Screening data from PubChem BioAssay.
Mtb hypoxia rep: PubChem AID 1159583; M. tuberculosis hypoxia-regulated fluorescent reporter, fluorescence; fluorescence inhibition, % (concentration not given with the values); 300,000 tested, 0.1% active;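 active = 35 to 45% if threefold the growth effect, above 45% if 1.5-fold the growth effect; inactive = the rest, general growth blockers included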;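 note: wells of about 50 µL received 100 nL stock; 0% = vehicle wells and 100% = reference inhibitor wells; whole bacteria with a GFP reporter of the hypoxia response; strong numbers were not always called active; many hits fall short of the cut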
PrP UTR inh: inhibition of PrP 5' UTR reporter expression. inhibition, % (no concentration beside the values). 340,000 tested, 0.35% active. cell-based PrP 5' UTR mRNA reporter, plate reader;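 active = every replicate at 50% or more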;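 note: 0 = median of the neutral control wells; tested in H4 reporter cells; numbers are from one replicate; inactives centre near -14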
BJeLR viability: MLPCN primary cell-based screen for lethality selective to Ras in HRASV12 cells | BJeLR (HRASV12) viability, CellTiter-Glo ATP luminescence, 48 h; reference of the scale not given here | inhibition, % (concentration not given with the values) | 300,000 tested, 0.17% active;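 active = replicate mean above 50%; inconclusive = above 50% but judged a plate artefact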;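 note: 50 nL library stock added to about 25 µL; numbers are from one replicate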
Autofluor counter: compound fluorescence in toxin protease inhibitor counterscreen; compound autofluorescence counterscreen, microsphere flow cytometry; stronger effect = higher value; fluorescence intensity (concentration not given with the values); 360,000 tested, 3.1% active;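 active = at least 3 SD above the mean of all compounds, about 16000 in these data; inconclusive = too few beads counted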;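 note: 100 nL of 1 mM stock went into each well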
Sa ugtP lethal: growth inhibition of ugtP-null S. aureus, primary screen, RN4220 ugtP deletion, OD600. 16 h; some inactives read as strong as hits. 330,000 tested, 0.54% active. growth inhibition, % (concentration not given with the values);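 active = z-score under -3 and OD600 up to 0.15 on both plates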;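 note: plate controls were untreated wells for no effect and antibiotic for full effect; wells of about 80 µL received 100 nL stock; the first replicate is given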
RN4220 kill: growth inhibition of S. aureus RN4220, primary screen, OD600; 16 h; inhibition, % (concentration not given with the values); 330,000 tested, 0.33% active; AID 1259311, 2017;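 active = z-score of -3 or lower and OD600 up to 0.18 on both plates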;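 note: plate controls were untreated cells for no effect and reference antibiotic for full effect; stock transfer was 100 nL into about 80 µL; one replicate is shown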
Mtb hypoxia rep growth: recorded beside Mtb hypoxia rep, whose call it bears; growth inhibition, %; measured here: M. tuberculosis growth (absorbance);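 0% = vehicle and 100% = reference antibiotic; read after six days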
Numbers without * were called inactive; ? = inconclusive; / = no result given. Compounds as they come. About 4% of those tested had a hit in this group.

SMILES | Mtb hypoxia rep | Mtb hypoxia rep growth | PrP UTR inh | BJeLR viability | Autofluor counter | Sa ugtP lethal | RN4220 kill
CCOC(=O)c1ccc(N2C(=O)C(O)=C(C(C)=O)C2c2ccc(O)c(OC)c2)cc1 (stereo not given) | 4 | 6 | -20 | 4 | 3182 | 4 | 2.5
Cc1cccc(C)c1NC(=O)CN(c1ccccn1)S(=O)(=O)c1ccc(F)cc1 | -6 | 4 | -14 | -10 | 2642 | 1 | 1.6
Cc1cc(C)nc(/N=C2\NC(=O)CC(C(=O)O)N2CCc2c[nH]c3ccccc23)n1 (stereo not given) | -3 | 11 | -29 | 6 | 6756 | -5 | -14
CC1(C)CC(CC(=O)Nc2ccc([N+](=O)[O-])cc2)C(=O)O1 (stereo not given) | 5 | 10 | -24 | -5 | 2879 | -2 | 1.6
CC(=NNC(=O)C1CCCCC1)c1ccc([N+](=O)[O-])cc1 | 10 | 12 | / | / | / | 3 | 3.0
CC(=O)c1cccc(N(C(=O)c2ccco2)C(C(=O)NC2CCCC2)c2ccc(N3CCOCC3)cc2)c1 (stereo not given) | 6 | -7 | -15 | -4 | 4722 | 3 | 4.0
O=S(=O)(c1ccc(C(F)(F)F)cc1)N1CCN(CCOc2ccccc2)CC1 | -6 | 13 | -12 | / | 6179 | 2 | -0.3
Cc1c(C(=O)Nc2ccc(F)cc2)sc2ncn(CC(=O)N3CCCCC3)c(=O)c12 | 7 | 5 | 5 | 3 | 5779 | 6 | 5.0
COC(=O)CSc1nnc(-c2cccnc2)n1C | 6 | -3 | -4 | -9 | 2676 | -1 | 1.8
COc1ccc(Cc2nc3ccc(C(=O)N4CCC(N(C)C)C4)cc3o2)cc1 (stereo not given) | 2 | 2 | 8 | 4 | 6015 | 1 | 6.5
Cc1cc(C)c(C#N)c(SCCN2CCCCC2)n1 | 7 | 6 | -24 | 1 | 3345 | 7 | 4.0
CCCCCCCCCCCCN1[C@@H](CC(C)=O)c2cc(F)cc(F)c2S1(=O)=O | / | / | -26 | 5 | 3924 | / | /
COc1ccc(C(=O)NCCOC(C)C)cc1OC1CCN(C(C)=O)CC1 | 3 | 6 | -6 | 3 | 3662 | 4 | 3.3
COc1cccc(-c2nc(CS(=O)CC(=O)NCCc3ccccc3)c(C)o2)c1 (stereo not given) | -9 | -5 | -1 | -3 | 4236 | -4 | -1.2
Cc1oc(-c2ccc3c(c2)OCCO3)cc1C(=O)NCC(=O)O | 11 | -2 | -27 | 5 | 3434 | -4 | 6.9
CCSc1nnc(Cn2c(=O)sc3ccccc32)n1-c1ccc(OC)cc1 | / | / | -9 | -5 | 6281 | -3 | 4.0
COCCc1nnc(NC(=O)Cc2ccccc2)s1 | / | / | -6 | -6 | 3552 | -4 | 4.4
CN(C)N1C(N)=C(C#N)C(c2ccc3c(c2)OCO3)C2=C1CCCC2=O (stereo not given) | 5 | 4 | -18 | 3 | 3766 | 10 | 1.1
O=C(CN1C(=O)NC2(CCCC2)C1=O)N1CCN(S(=O)(=O)c2ccccc2F)CC1 | -5 | -10 | -19 | -2 | ? | 1 | -2.4
O=C(Nc1nc2ccccc2[nH]1)C1CCN(S(=O)(=O)c2cccs2)CC1 | 1 | 3 | -16 | 2 | 2369 | -4 | 7.6
COC(=O)[C@H](CCSC)NC(=O)NCc1ccccc1F | 0 | 18 | 6 | -5 | 22106* | -2 | 1.4
Nn1c(SCc2cccc(F)c2)nnc1-c1ccncc1 | 1 | -1 | -23 | 5 | / | 4 | 3.5
CCc1cccc(NC(=O)Cn2c(=O)c3cccn3c3ccccc32)c1 | 10 | -3 | -8 | -7 | 4841 | 6 | 2.4
O/N=C/c1cccc[n+]1CCCCCC[n+]1ccccc1/C=N/O | / | / | -41 | -5 | 3799 | / | /

2 entries from above, comma-delimited.
molecule,Mtb hypoxia rep,Mtb hypoxia rep growth,PrP UTR inh,BJeLR viability,Autofluor counter,Sa ugtP lethal,RN4220 kill
COc1cccc(-c2nc(CS(=O)CC(=O)NCCc3ccccc3)c(C)o2)c1 (stereo not given),-9,-5,-1,-3,4236,-4,-1.2
Cc1oc(-c2ccc3c(c2)OCCO3)cc1C(=O)NCC(=O)O,11,-2,-27,5,3434,-4,6.9

Later entries
SMILES | Mtb hypoxia rep | Mtb hypoxia rep growth | PrP UTR inh | BJeLR viability | Autofluor counter | Sa ugtP lethal | RN4220 kill
Cc1cn(COC/C=C/c2ccccc2)c(=O)[nH]c1=O | -2 | 3 | -5 | 4 | 9319 | -1 | 0.0
CCN(CC)C(=O)[C@H]1C[C@H](CC(=O)NCC23CC4CC(CC(C4)C2)C3)C(=O)N2CCc3c([nH]c4cc(CCC(=O)N(C)C)ccc34)[C@]12C | -8 | 9 | -15 | / | 3629 | 0 | 1.0
COc1ccc(C)cc1Nc1nnc(C)c(=O)[nH]1 | 3 | 15 | -25 | -9 | 4502 | 0 | 1.3
O=C(COc1ccccc1Cl)NNC(=O)Cn1[nH]c(=O)c2ccccc2c1=O | 12 | 7 | / | / | / | -1 | 2.9
CN1CCN(C(=O)c2cc3cc(F)ccc3[nH]2)CC1 | 2 | 7 | -29 | -7 | 3513 | -8 | -2.0
COc1ccc(CN2CCN(CCC(C)C)C(CCO)C2)cc1Cn1cccn1 (stereo not given) | 4 | -2 | -22 | 0 | 2549 | 9 | 3.9
COc1ccc(C(CC(=O)c2ccccc2)S(=O)(=O)c2ccc(C)cc2)cc1 (stereo not given) | / | / | -56 | -1 | 11120 | 5 | 18
Cc1ccc(NC(=O)c2cc(Cl)ccc2[N+](=O)[O-])cc1C | -10 | 5 | 0 | 3 | 2131 | -15 | 0.9
Cc1cc(C)c(NC(=O)C2CCCN2CCC(C)C)c(C)c1 (stereo not given) | 5 | -4 | -5 | -7 | 5050 | -4 | -0.5
CCN(CC)c1ccc(S(=O)(=O)N2CCOCC2)cc1NC(=O)COC(=O)COc1ccccc1C | 2 | -3 | -22 | 6 | 4472 | 3 | 7.3
CCC1C(=O)c2ccccc2N(C)C1=O (stereo not given) | 16 | 1 | -30 | 3 | 2694 | -1 | 3.3
CCCC(=O)NC(c1ccc(OC)cc1)c1c(O)ccc2ccccc12 (stereo not given) | -9 | 2 | -21 | 4 | 3445 | 10 | 1.1
O=C(Nc1ccccc1C(=O)O)c1ccc(NC(=O)C2CCCO2)cc1 (stereo not given) | 2 | -1 | -22 | -10 | 4712 | 1 | 3.8
Cc1ccc(CSc2nnc(SCC(=O)NN=Cc3ccccc3OCC(=O)O)s2)cc1 | 12 | 3 | / | / | / | 3 | 3.6
COc1cc2c(cc1NC(=O)CCCN1C(=O)CCC1=O)oc1ccccc12 | / | / | -48 | 2 | 2678 | -6 | 0.9
Nc1ccc(S(=O)(=O)N2CCCC2)cc1Cl | 12 | 0 | -1 | -21 | 3978 | 7 | 9.8
CCC(C)NC(=O)CC(NS(=O)(=O)c1ccc(Cl)cc1)c1ccco1 (stereo not given) | / | / | -5 | 1 | 5666 | 1 | -0.2
CC(=O)NC1(C(F)(F)F)NC(=O)N(c2ccc(F)cc2)C1=O (stereo not given) | -1 | 13 | -16 | 27 | 3287 | -3 | 1.1
O=C1N/C(=C/c2cccn2-c2ccc(F)cc2)C(=O)N1Cc1ccccc1F | 12 | 3 | 0 | -7 | 2058 | 58 | 0.1
CNC(=O)COC(=O)c1ccccc1Oc1ccccc1 | 11 | -1 | -14 | -8 | 16994* | 12 | 8.2
O=C(CSc1nnc(-c2cccnc2)n1Cc1ccccc1)NCc1ccccc1 | / | / | -1 | 2 | / | -1 | -0.3
NC(=O)CC(NC(=O)Cc1ccc(Cl)cc1)c1ccc(NCc2ccccc2)c([N+](=O)[O-])c1 (stereo not given) | 12 | 8 | -8 | -10 | 3665 | -5 | 6.8
Cc1cnc(NC(=O)Cc2ccc(Br)cc2)s1 | -4 | 3 | -11 | -7 | 4203 | 5 | -1.4
COc1ccc(CC2(CCc3ccncc3)C(=O)NC(=O)NC2=O)c(OC)c1 | 3 | 5 | -14 | 5 | 4358 | 4 | 1.8

Looked up above:
Value of O=C1N/C(=C/c2cccn2-c2ccc(F)cc2)C(=O)N1Cc1ccccc1F in PrP UTR inh: 0
Value of COc1cc2c(cc1NC(=O)CCCN1C(=O)CCC1=O)oc1ccccc12 in BJeLR viability: 2

Structures shown so far with a CF3 group:
SMILES | Mtb hypoxia rep | Mtb hypoxia rep growth | PrP UTR inh | BJeLR viability | Autofluor counter | Sa ugtP lethal | RN4220 kill
O=S(=O)(c1ccc(C(F)(F)F)cc1)N1CCN(CCOc2ccccc2)CC1 | -6 | 13 | -12 | / | 6179 | 2 | -0.3
CC(=O)NC1(C(F)(F)F)NC(=O)N(c2ccc(F)cc2)C1=O (stereo not given) | -1 | 13 | -16 | 27 | 3287 | -3 | 1.1

Remaining list, next part:
SMILES | Mtb hypoxia rep | Mtb hypoxia rep growth | PrP UTR inh | BJeLR viability | Autofluor counter | Sa ugtP lethal | RN4220 kill
COc1ccc(OC)c(/C=N/NC(=O)c2nnn(-c3nonc3N)c2-c2cccs2)c1 | / | / | -19 | 23 | 4997 | / | /
O=C(CN1C(=O)NC(CCc2ccccc2)C1=O)Nc1ccc(F)c(F)c1F (stereo not given) | 11 | 4 | -23 | / | 4649 | 6 | 2.0
COc1ccccc1C=NNC(=O)c1ccccc1Cl | 6 | -2 | / | / | / | 1 | 2.1
O=C(O)CS(=O)CC(=O)NCc1cccc(C(F)(F)F)c1 (stereo not given) | 2 | 2 | -22 | -6 | 2242 | -4 | 6.1
O=C(CSc1c2c(nc3ccccc13)CCCC2)NCc1ccco1 | 17 | 6 | 2 | -5 | 2256 | 3 | 3.4
COC(=O)[C@]1(Cc2ccccc2)N[C@H](CN(C)C(=O)Nc2ccc(C(F)(F)F)cc2)[C@@H]2C(=O)N(Cc3ccccc3)C(=O)[C@@H]21 | -3 | -1 | -11 | / | 3761 | -24 | -4.4
O=C(COC(=O)c1cc(-c2ccco2)nc2ccccc12)NCc1ccc2c(c1)OCO2 | 4 | 11 | -17 | 0 | 3135 | 18 | -9.7
O=C(COC(=O)Cc1ccc(Br)cc1)NC1CCCCCC1 | 0 | 2 | -13 | 9 | 4149 | -2 | 5.6
Cc1cnc(C(=O)OCC(=O)Nc2sc3c(c2C#N)CCC3)cn1 | 2 | 11 | -12 | 8 | 5616 | -9 | 0.1
CN1CCN(S(=O)(=O)c2ccc(N3CCN(S(=O)(=O)c4cccs4)CC3)nc2)CC1 | / | / | -17 | / | 2980 | -2 | -1.2
Oc1cccc(Nc2nc(NCC3CCCO3)c3ccccc3n2)c1 (stereo not given) | -83 | -6 | -14 | 3 | 3663 | -15 | 7.0
Cc1ccc(C(=O)COC(=O)C2CC(=O)N(c3nc(-c4ccccc4)cs3)C2)cc1C (stereo not given) | 5 | 2 | -40 | -1 | 5930 | 3 | 3.8
COc1ccc(NC(=O)c2cccc(-n3c(C)ccc3C)c2)c(OC)c1 | 7 | 4 | -27 | -6 | 14610 | 0 | 4.8
Cn1c(CNS(=O)(=O)c2ccc(Br)cc2)n[nH]c1=S | 7 | 8 | 9 | -3 | 4614 | 7 | 0.0
CC(C)c1cccc(C(C)C)c1NC(=O)COC(=O)c1ccc2c(c1)S(=O)(=O)c1ccccc1C2=O | 7 | 8 | -18 | -6 | 2237 | 4 | 7.0
CCN(CC)CCC(c1ccc(N(C)C)cc1)c1c(OC)cc(OC)c2ccc(=O)oc12 (stereo not given) | 5 | 6 | -11 | -21 | 3761 | -1 | 0.4
COc1ccc(OC)c(CN2CCC(Cc3ccccc3)CC2)c1 | 8 | 6 | -5 | 4 | 4031 | 15 | 3.2
COc1ccccc1NC(=O)Nc1ccccc1C#N | 7 | 7 | -28 | 10 | 3608 | 15 | 1.4
CCC(c1nnc(SCC(=O)NCCc2ccc(Cl)cc2Cl)o1)N(C)C (stereo not given) | / | / | 7 | 5 | 4613 | -9 | 1.3
O=C(c1ccccc1)N1CCN(C(=O)c2cc3nc(-c4ccccc4)cc(C(F)(F)F)n3n2)CC1 | 0 | 13 | -17 | -12 | 3629 | 16 | 3.1
CCOCCCNC(=S)N(Cc1ccccc1)Cc1nc2ccccc2c(=O)[nH]1 | -3 | 0 | -24 | 6 | 2426 | 7 | 6.0
CCOc1ccc(OCC)c(NC(=O)CSc2nnnn2CC)c1 | 10 | 1 | -21 | -11 | 6752 | 1 | 0.1
CCN(C(=O)COC(=O)c1ccccc1NCCO)c1cccc2ccccc12 | 10 | -2 | -11 | -5 | 6027 | -2 | 3.9
CCOC(=O)CC(=O)Nc1nnc(C(C)C)s1 | 4 | 6 | -31 | -2 | 9863 | 0 | 6.9
CC(c1ccco1)N(C(=O)c1cc(Cl)cc(Cl)c1)c1ccccn1 (stereo not given) | -1 | 7 | -23 | -7 | 5048 | 4 | 6.4
